eIF4H inh – human eIF4H binding inhibitors, primary screen, translation initiation inhibitor project, biochemical, uHTS, fluorescence polarization. eIF4H fluorescence polarization binding assay. 290,000 tested, 0.94% active. inhibition, % at 35 µM. AID 2012, 2009. Eukaryotic translation initiation factor 4H (Homo sapiens), Q15056;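 active = 50% or more with normal probe brightness, or confirmed in later tests; inconclusive = above 50% with abnormal brightness, or retests that disagree; inactive = below 50% or failed in later tests; about a fifth of its hits are not listed in these tables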;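 note: calls also rest on retests at 20 µM and on dose response follow-up; 0% = protein and probe with vehicle and 100% = probe without protein; strong numbers were not always called active; many hits fall short of the cut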
Rce1 inhib – yeast Rce1p protease inhibitors, primary screen, biochemical, fluorescence, cell-free homogeneous; CAAX prenyl protease 2 (Saccharomyces cerevisiae (strain ATCC 204508 / S288c)), Q03530; yeast membranes, quenched prenylated peptide cleavage fluorescence; calls only; 290,000 tested, 0.27% active;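 active = fall in fluorescence gain of 50% or more versus controls, with final raw signal at or below 3038400; inconclusive = same 50% fall but final raw signal above 3038400; inactive = fall in fluorescence gain under 50%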;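 note: plate controls were neutral control wells for no effect and wells lacking membranes for full effect; tested at 10 µM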
Target sequence (Q03530 whole entry, looked up): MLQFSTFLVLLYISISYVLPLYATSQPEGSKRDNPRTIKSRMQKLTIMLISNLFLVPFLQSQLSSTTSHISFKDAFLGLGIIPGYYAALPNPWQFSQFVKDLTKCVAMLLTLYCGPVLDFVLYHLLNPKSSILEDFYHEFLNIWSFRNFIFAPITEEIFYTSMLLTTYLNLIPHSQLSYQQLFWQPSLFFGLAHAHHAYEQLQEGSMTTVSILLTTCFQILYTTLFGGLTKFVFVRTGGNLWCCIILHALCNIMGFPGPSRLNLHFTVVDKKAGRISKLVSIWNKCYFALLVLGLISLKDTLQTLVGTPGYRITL
CSC inhib – cancer stem cell viability inhibitors, primary screen, luminescence. inhibition, % at 7.5 µM. cancer stem cell-like cells viability. 300,000 tested, 1.1% active;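 active = mean at 75% or more and at least half the replicates too; inconclusive = mean and replicates disagree; tested in HMLE shEcad cells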;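 note: 0% = median of negative and 100% = median of positive control wells; the first replicate is given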
PABP polyA inh – PABP poly(A) RNA binding inhibitors, primary screen, biochemical, fluorescence polarization, uHTS | Polyadenylate-binding protein 1 (Homo sapiens), P11940 | inhibition, % at 35 µM | 290,000 tested, 1% active;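 active = 50% or more with normal probe brightness, or confirmed in later tests; inconclusive = above 50% with abnormal brightness, or retests that disagree; inactive = below 50% or failed in later tests; about a fifth of its hits are not listed in these tables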;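 note: calls also rest on retests at 20 µM and on dose response follow-up; controls were probe without protein and protein plus probe with vehicle; some compounds called inactive have numbers as strong as hits; many hits fall short of the cut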
MT1-MMP act inh – blockers of MT1-MMP proenzyme processing, primary screen, HT1080 RFP-PRO-GFP cells, GFP/RFP fluorescence | AID 651647, 2012 | 360,000 tested, 0.061% active | GFP/RFP ratio change, % at 20 µM | GFP/RFP ratio fluorescence, overnight; percent of plate control window, DMSO zero | Matrix metalloproteinase-14 (Homo sapiens), P50281;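 active = GFP/RFP ratio change of at least 30% with cell ATP level not reduced by more than half and red fluorescence within 50% of control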; note: strong numbers were not always called active
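Assay system: HT1080 cells carrying an RFP-PRO-GFP reporter | Dosing: Single dose of 20 µM compound, 1% DMSO final | Incubation: Cells overnight before dosing, compound overnight, 37 °C, 5% CO2 | Evaluation: GFP/RFP fluorescence ratio | Control set: DMSO and RFP-L50D-GFP cell wells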
Yeast UUG start – modulators of yeast start codon fidelity, primary screen, whole organism, S. cerevisiae, single point, plate reader; S. cerevisiae UUG-firefly luciferase reporter, luminescence/redox ratio; activity score, % at 18.7 µM; AID 602363, 2012; 350,000 tested, 0.13% active;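 active = replicate mean at a twofold rise or more, about +100% in these data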;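 note: firefly luciferase made from a UUG start codon reports start codon fidelity; reporter light over untreated wells divided by growth signal over untreated wells; some hits fall short of that in this replicate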
Env fusion inh – inhibitors of HIV-1 Env-driven cell-cell fusion, primary screen, HeLa-JRFL effector, CEM21 target cells, luciferase; inhibition, % at 12.3 µM; AID 651610, 2012; 360,000 tested, 1.1% active;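 active = mean replicate inhibition score of at least 50 and every replicate individually at or above 50; inconclusive = only one of the two criteria met; inactive = mean below 50 and not all replicates reaching 50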;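 note: 0% = plate neutral controls and 100% = maraviroc near 300 nM; one replicate is shown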
eIF4H inh retest – recorded beside eIF4H inh, whose call it bears; inhibition, %; compound at 20 µM; confirmation average;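 mean of two retest wells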
PABP polyA inh retest – second read-out of PABP polyA inh, no call of its own (marks repeat the call); inhibition, %; compound at 20 µM; confirmation repeats;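 mean of two retest wells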
MT1-MMP act inh RFP – also measured in MT1-MMP act inh; calls as there; RFP signal change, %; measured here: RFP expression control read;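 0 = vehicle wells; hits needed this value within 50% of zero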
An asterisk follows results filed as active; i = inactive; ? = inconclusive; . = not tested or not shown; + = active, no number; & = joins results of further samples; [ ] = another dose, or the depositor's remark.

SMILES	eIF4H inh	Rce1 inhib	CSC inhib	PABP polyA inh	MT1-MMP act inh	MT1-MMP act inh RFP	Yeast UUG start	Env fusion inh	others
CC(=O)c1ccc[n+](CC(=O)NC(C)c2ccccc2)c1 (stereo unspecified)	?	i	-9	?	-8	5	-19	-16
COC(=O)C1=C(NC(=O)c2ccc(Br)cc2)CCS1	5	i	-1	42	0	3	.	11
O=C(NNc1ncc(C(F)(F)F)cc1Cl)c1c(Cl)cccc1Cl	-2	i	40	-9	11	-6	-22	-195
Cc1ccc(NC(=O)C2CCCN2C(=O)OCc2ccccc2)c(O)c1 (stereo unspecified)	-8	i	9	-1	13	6	-7	6
CCCCCSc1nnc(N)s1	-5	i	6	10	6	-4	.	3
COCc1cc(C)nc2sc(C(=O)NCCO)c(-n3cccc3)c12	-3	i	0	3	2	8	.	9
Cc1cc(NC(=O)CN2C(=O)C3CC=CCC3C2=O)no1 (stereo unspecified)	1	i	-5	-2	-1	4	-11	-77
COC(=O)c1cc2c(ccn2C)n1C	2	i	-12	9	-1	3	.	-15
Cc1ccc(C(=O)NCCNC(=O)CN2CCOCC2)cc1	2	i	.	-6	-2	-2	.	.
Cc1ccc(-n2nc3ccc(NC(=O)/C=C/c4ccco4)cc3n2)cc1C	72*	i	.	-10	1	-5	-1	-73	eIF4H inh retest=74*;PABP polyA inh retest=7
O=C(CSc1nc(C2CC2)nc2ccccc12)Nc1ccccc1Cl	-3	i	.	-7	-9	-5	-9	0
CCOc1ncccc1C(=O)OCC(=O)Nc1ccc(-c2nc3ccc(C)cc3s2)cc1	-2	i	3	25	3	-2	.	-166
CN(CCCNC(=O)c1ccc(/C=N/O)nc1)CCCN(C)Cc1ccccc1	1	i	-6	1	4	-1	-22	-23
CCOc1ccc(S(=O)(=O)N2CCC(C(=O)NCC3CCCO3)CC2)cc1Cl (stereo unspecified)	-3	i	.	2	-2	-3	0	2
O=C(NCc1cccc(Cl)c1)c1ccco1	-7	i	24	12	2	-3	.	.
COC(=O)CN1C(=O)CSc2ccc(S(=O)(=O)N3CCC(C)CC3)cc21	.	.	.	.	0	2	0	17
CC(C)COC(=O)C(N)C(C(=O)OCC(C)C)c1ccccc1 (stereo unspecified)	-5	i	-22	24	-1	-2	-4	.
Cc1c(Cl)cccc1NC(=S)N=Nc1c(O)n(CN2CCOCC2)c2ccccc12	12	i	61	0	8	-3	.	.
CCC(c1nnnn1C(C)(C)C)N1CCN(C/C=C/c2ccccc2)CC1 (stereo unspecified)	.	.	.	.	-8	1	-9	-8
Cc1cc(NC(=O)COC(=O)c2oc3c(Cl)cccc3c2C)no1	7	i	1	-4	0	4	-13	7
COc1cccc(Cc2n[nH]c(=S)n2Cc2ccco2)c1	-5	i	-5	-11	9	-5	.	6
N#CCSc1nc2sccc2c(=O)n1-c1ccccc1	6	i	5	20	-5	-1	-12	-11
CCOC(=O)C1CCN(CCC(=O)Nc2cccc(Cl)c2)CC1	-5	i	-15	-7	1	5	-11	2
COc1ccc(NS(=O)(=O)c2ccc3oc(SC(C)C(N)=O)nc3c2)cc1 (stereo unspecified)	18	i	20	7	-5	-26	5	19
NC(=O)C1CCN(C(=O)COc2ccc3c4c(c(=O)oc3c2)CCC4)CC1	-8	i	-8	0	1	4	-15	.

More results:
SMILES	eIF4H inh	Rce1 inhib	CSC inhib	PABP polyA inh	MT1-MMP act inh	MT1-MMP act inh RFP	Yeast UUG start	Env fusion inh	others
COC(=O)[C@]1(C)CCC[C@@]2(C)C3CC[C@@]4(C)C[C@]3(CCC21)CC(=O)N4C (stereo partly specified)	.	.	5	.	0	-6	7	9
Cc1cc(N)ccc1NC(=O)CN1CCOCC1	-12	i	-3	2	1	1	-18	-2
CCn1cc(Cl)c(C(=O)Nc2ccc3c(c2)OCCO3)n1	10	i	-1	-15	-1	0	.	-23
O=C(NCc1ccc(Cl)cc1)c1ccccc1Oc1ccccc1	7	i	52	-2	-10	-15	3	43
COc1cc(/C=C/C(=O)OCC(=O)N2CCC(C)CC2)ccc1O	.	i	-2	.	3	0	-3	.
COCCNC(=O)C1CCCN(C(=O)COc2ccc(Cl)cc2Cl)CC1 (stereo unspecified)	.	.	.	.	0	0	-4	2
COc1ccc(/C(C)=N/NC(=O)c2ccc(CSc3cccc4cccnc34)cc2)cc1OC	-8	i	-12	-2	7	3	-22	?
O=S1(=O)CC(N2CCN(CC3CC3)CC2)CN1C1CCCC1 (stereo unspecified)	.	.	.	.	-2	2	-14	-2
C=CCNc1nc(C2(C)CC3(CC(C)(C)OC3=O)C(=O)O2)cs1 (stereo unspecified)	-8	i	1	-11	4	0	-3	.
O=C(NCCCN1CCOCC1)c1ccc(Br)s1	3	i	-9	6	-1	3	1	.
COc1ccc(C)cc1S(=O)(=O)NC(C)C(=O)NC1CC1 (stereo unspecified)	-14	i	6	0	1	3	-13	-7
Cn1c(C2=C(O)CN(c3ccccc3)C2=N)nc2ccccc21	1	i	-5	37	2	1	.	-12
CCc1nnc(NC(=O)CCC(=O)N2CCN(C3c4ccccc4-c4ccccc43)CC2)s1	2	i	-6	-4	-1	1	-1	6
COCCN(C(=O)COC(=O)CCCOc1ccc(OC)cc1)c1c(N)n(Cc2ccccc2)c(=O)[nH]c1=O	.	i	-3	.	0	-1	2	-7
COc1ccc(Cl)cc1NC(=O)CN(C)CC(=O)Nc1ccc(C)cc1Br	4	i	13	4	-2	-7	4	21
Cc1ccsc1C(=O)NCC(c1cccs1)N1CCOCC1 (stereo unspecified)	.	.	.	.	0	4	-10	-27
Cc1noc(C)c1S(=O)(=O)Nc1ccc2c(c1)C(=O)N([C@H](C)CO)C[C@H](C)[C@@H](CN(C)C(=O)NC(C)C)O2	.	.	.	.	-1	6	8&-7	-65[16.7 µM]
CC(OC(=O)c1ccc(Br)c(S(=O)(=O)N2CCOCC2)c1)C(=O)NC1CCCCC1C (stereo unspecified)	.	i	-1	.	6	-7	-13	-5
O=C(CSCc1ccccc1)NCCc1ccc(F)cc1	3	i	-12	4	1	-1	-1	18
O=C(N/N=C/c1ccc(N2CCCCC2)o1)c1ccccc1[N+](=O)[O-]	15	i	-16	-1	1	2	-6	10
O=C(CC(C(=O)O)c1ccc(Cl)cc1)c1ccc(Br)cc1 (stereo unspecified)	-2	i	-8	8	6	2	-21	2
CCCCCCn1c(=O)n2n(c1=O)C[C@]1(OC(=O)NCc3ccccc3)CN(S(=O)(=O)c3ccc(C)cc3)C[C@]1(O)C2	.	.	.	.	-1	-10	-8	-112
COc1cc(CCC(=O)NCC2CCCO2)cc(OC)c1OC (stereo unspecified)	2	i	11	5	-1	2	-22	-9
COc1ccccc1-c1nc(C#N)c(N2CCc3ccccc3C2)o1	7	i	-1	8	-1	-8	-12	.
CCOC(=O)C1=CCN(S(=O)(=O)c2ccccc2F)C1c1cccc(F)c1 (stereo unspecified)	.	.	.	.	5	-4	4	-12

(cont.)
SMILES	eIF4H inh	Rce1 inhib	CSC inhib	PABP polyA inh	MT1-MMP act inh	MT1-MMP act inh RFP	Yeast UUG start	Env fusion inh	others
C#CCOCCOCCOCCNc1nc(N2CCN(C(=O)Cn3cc(CCCCN)nn3)CC2)nc(N2CCN(C(=O)[C@H](CCCCN)n3cc(CCCC)nn3)CC2)n1	.	.	-7	.	-3	2	42	-1
O=C(NCc1ccc2c(c1)OCO2)c1ccc(S(=O)(=O)N2CCOCC2)cc1	-10	i	-1	10	1	-1	.	8
CC(C)(C)c1ccc(-c2c(C#N)c(N)nc3c2CCCC3)s1	9	i	7	-1	0	-6	-25	23
CCC(=O)c1ccc(OCCn2cnc3ccccc32)cc1	-5	i	8	14	-11	-21	.	-13
COc1ccc(CN2C(=O)CCC2(C)c2nc3ccccc3[nH]2)cc1 (stereo unspecified)	.	.	.	.	4	3	-15	14
O=C(COC(=O)/C=C/c1ccc(Cl)cc1)Nc1ccc2c(c1)OCCO2	-1	i	-4	2	2	6	-9	4
CCOC(=O)C1CCCN(C(=O)CCn2nnnc2CN2CCOCC2)C1 (stereo unspecified)	7	+	4	-4	1	3	-22	7
Cc1c(Cl)c([N+](=O)[O-])nn1CCCC(=O)Nc1c(C)n(C)n(-c2ccccc2)c1=O	0	i	4	0	-5	-2	-1	-8
Cc1nnc(Sc2cc(NCCCO)c([N+](=O)[O-])c3nonc23)s1	1	i	.	-18	3	9	.	-5
O=C(O)Cc1ccc(NC(=O)CCN2C(=O)c3ccc([N+](=O)[O-])cc3C2=O)cc1	-2	i	.	4	-1	1	5	-12
O=C(NC1CCN(Cc2ccccc2)CC1)c1cncc(Br)c1	0	i	11	-4	0	-2	-23	4
O=c1oc2cc(Oc3c([N+](=O)[O-])cc(C(F)(F)F)cc3[N+](=O)[O-])ccc2c2c1CCCC2	-17	?	45	-1	9	1	-5	5
Oc1ccc(/C=C/c2ccc3cccc(O)c3n2)cc1Br	12	i	93*	0	-43	1	-14	-57
COc1ccc(N(C(=O)CSCC(=O)Nc2cc(C)on2)C(C(=O)NC2CCCCC2)c2ccc(O)c(O)c2)cc1 (stereo unspecified)	-6	i	17	?	7	3	.	57*
COc1ccc(/C=C(/NC(=O)c2ccco2)C(=O)N2CCCCC2)cc1	0	i	-9	2	.	.	-3	1
CCc1nnc(N/N=C/c2ccc(-c3ccc([N+](=O)[O-])cc3)o2)n1N	52	i	-14	8	-4	4	.	-3	eIF4H inh retest=8;PABP polyA inh retest=20
Cc1ccccc1NS(=O)(=O)c1ccc(NC(=O)CSCc2ccc(Br)cc2)cc1	-5	i	20	-4	-2	-8	0	.
COc1ccc(-c2[nH]n(-c3ccc([N+](=O)[O-])cc3)c(=O)c2C=NCCN2CCNCC2)cc1	-10	i	-15	-7	.	.	.	.
CCCN(C(=O)Cc1c(C(=O)O)n(C)c2ccccc12)c1cccc(C)c1	-5	i	-1	-6	1	3	-7	3
CC(C)C(=O)Nc1cccc(NC(=O)c2cccc(F)c2)c1	3	i	9	1	4	4	-10	5
CCOC(=O)COn1c2c(c3c4no[n+]([O-])c4ccc31)CCCC2	36	i	-8	0	-7	2	-11	.
Cc1nc[nH]c(=O)c1Br	4	i	-13	8	1	8	.	-12
Cc1cc(C)c2c(n1)nn1c(C3CC3)cc(C(F)(F)F)nc21	.	i	-5	.	-4	1	.	.
Cc1c(-c2ccccc2)nc2ccccc2c1C(=O)Oc1ccc([N+](=O)[O-])cc1	-3	i	29	9	-2	-12	-2	.
COc1ccc(NC(=O)C2CCCN(c3ncnc4onc(-c5ccc(F)cc5)c34)C2)cc1 (stereo unspecified)	0	i	-10	2	0	3	-5	6
[O-][n+]1onc2c1CCC(=N/O)/C2=N\Nc1ccccc1	29	i	-8	35	.	.	.	.
CC(=O)Nc1ccc(S(=O)(=O)NCC2CCC(C(=O)NC3CCCCCC3)CC2)cc1 (stereo unspecified)	5	i	-16	14	2	0	.	.
Cc1ccc(OCc2cc(C(=O)N3CCCC3)no2)cn1	-10	i	9	-6	3	-2	-8	.

Screening results: PubChem BioAssay, several laboratories
